# Compound activity deposited in PubChem BioAssay by National Center for Advancing Translational Sciences (NCATS).
# HPGD block: blocks human HPGD enzyme activity. P15428. purified HPGD, NADH fluorescence kinetic, PGE2 substrate. Potency, µM, without a hit: top-dose activity change, negative = inhibition, actives largely listed as inhibitors. 4.3% of 150,000 active. AID 894; active = well fitted inhibition curve with a large enough effect (not every such curve was filed as active); inconclusive = small, poorly fitted or top-dose-only effect, or another doubt; inactive = no such curve, though single readings can be large or run the other way;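 note: top concentration of the series not given in the record; plate controls included wells without enzyme; inactives centre near -10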
# Target sequence (P15428 whole entry, looked up): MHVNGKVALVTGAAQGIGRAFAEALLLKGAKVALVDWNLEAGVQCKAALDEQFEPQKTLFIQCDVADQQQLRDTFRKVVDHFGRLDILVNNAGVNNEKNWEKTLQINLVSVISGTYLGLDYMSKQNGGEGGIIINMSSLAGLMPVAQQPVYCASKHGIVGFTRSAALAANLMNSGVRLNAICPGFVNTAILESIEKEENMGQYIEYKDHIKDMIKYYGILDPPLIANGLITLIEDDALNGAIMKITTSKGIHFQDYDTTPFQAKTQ
#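 20 nM HPGD preincubated 15 min at room temperature with compound in 50 mM Tris-HCl pH 8, 0.01% Tween 20. Started with 1 mM NAD+ and 30 uM prostaglandin E2; NADH fluorescence (360/450 nm) read 5 times over 30-s intervals, last minus first.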
# The depositor's hits bear a star; ? = inconclusive. % is set by controls: 0 for no effect and ±100 for the full control effect; potency is the fitted concentration of half-maximal effect.
SMILES,HPGD block
CCC1OC(=O)CC(O)C(C)[C@@H](O[C@@H]2OC(C)[C@H](O[C@@H]3C[C@@](C)(O)C(O)C(C)O3)C(N(C)C)C2O)[C@H](CC=O)CC(C)C(=O)/C=C/C(C)=C/[C@@H]1COC1OC(C)C(O)C(OC)[C@@H]1OC (some centres not stated),-1%
Nc1nc(N2CCOCC2)nc(N(c2ccccc2)c2ccccc2)n1,0%
CCCCC[C@H](O)/C=C/[C@@H]1[C@H]2C/C(=C/CCCC(=O)O)C[C@H]2C[C@H]1O,-10%
CC(C)N(C(=O)CSc1nc2ccccc2n1Cc1ccccc1)C(C)C,-10%
CCOCCCn1c(=O)c(NC(=O)c2ccc(OCC)cc2)c2n(c1=S)CCCCC2,-4%
CCN1CCCC1CNC(=O)CS(=O)(=O)Cc1nc(-c2ccccc2C)oc1C (configuration not stated),-13%
COc1ccccc1NC(=O)COc1ccc(Br)cc1CO,-7%
CCOC(=O)c1c(NC(=O)CSC(=S)N(C)C)sc(C)c1C,-18%
O=c1c2cc(Br)ccc2nc(-c2cccc(C(F)(F)F)c2)n1O,-14%
O=S(=O)(/N=C(/Nc1ccccc1)C(F)(F)F)c1ccccc1,4%
Cn1c(=O)oc2cc(S(=O)(=O)NCc3ccco3)ccc21,-8%
Cc1ccccc1-n1c(=O)/c(=C\c2ccco2)s/c1=C(/C#N)C(=O)Nc1ccccc1,-14%
COc1cccc(C2=NO[C@@H]3C(=O)N(c4ccc5c(c4)OCCO5)C(=O)[C@H]23)c1OC,-13%
CS(=O)(=O)Nc1cccc(C(=O)CC2(O)C(=O)Nc3ccccc32)c1 (configuration not stated),-4%
CCN1C(=O)/C(=C/C=C2/Sc3ccc4ccccc4c3N2CCO)SC1=S,-10%
Cc1ccc(Cn2ncc3c(NCCCN4CCOCC4)ncnc32)cc1,-13%
CCOC(=O)c1ccc(NC(=S)Nc2cccc(C)n2)cc1,-4%
O=C(CN1CCOCC1)Nc1ncc(Cc2cccc(Cl)c2Cl)s1,-17%
CCNC(=O)N1c2ccc(OC)cc2C(C)=CC1(C)C,-28%
NC(=O)NC(=O)[C@H]1CCCC[C@@H]1C(=O)O,-7%
O=C(NCc1cccnc1)c1cccc(S(=O)(=O)N2CCCCC2)c1,-6%
Cc1ccccc1-c1nc(CS(=O)(=O)CC(=O)NCCCN2C(C)CCCC2C)c(C)o1 (configuration not stated),4%
Cc1ccccc1OCc1nc2ccccc2c(=O)n1NC(=O)c1ccco1,-12%
CCCCn1c(Cc2ccccc2)nnc1SCC(=O)N1CCOCC1,-10%
Nc1c(NCCN2CCOCC2)c2ccccc2oc1=O,-12%
Oc1ccc(-c2cccc(-c3ccc(O)cc3)n2)cc1,?
Cc1ccc(-n2nnnc2SCC(=O)Nc2ccc3c(c2)OCCO3)cc1C,-6%
O=C(c1ccco1)N1CCN(C(=O)c2cccs2)CC1,-6%
CC1CCCC(C)N1C(=O)C1CC(c2ccc(F)cc2)=NO1 (configuration not stated),6%
CCOC(=O)N1CCC2(CC1)C(C#N)=C(N)Oc1n[nH]c(C)c12,-7%
O=C1NCCc2c1[nH]c1ccccc21,?
CC1CCN(CCOCCOc2ccc(Br)cc2Cl)CC1,1%
CCCCOc1ccccc1-c1cc(C(=O)O)[nH]n1,-15%
CSc1ccc(C2C3(C#N)C(N)=NC4(OCCO4)C23C#N)cc1 (configuration not stated),-9%
c1coc(CN=C2NC(=NCc3ccco3)c3ccccc32)c1,-25%
Nc1nnc(COc2ccccc2)s1,-10%
COc1ccccc1OCCNc1cc(N2CCCCC2)ccc1[N+](=O)[O-],-19%
COc1ccc2c(c1)Cc1sc(NC(=O)c3ccco3)nc1-2,-9%
Cc1ccc(C(C)C)c(OCC(=O)Nc2ccc(Cl)cn2)c1,-7%
CC(=O)c1ccc(NS(=O)(=O)Cc2ccccc2)cc1,25µM*
COc1ccc2c(c1)C(c1ccc([N+](=O)[O-])cc1)=NNC(c1ccco1)=N2,-10%
O=C(COC(=O)c1ccccc1NC(=O)c1ccccc1)c1ccc([N+](=O)[O-])cc1,-13%
c1ccc2cc(CN3CCOCC3)ccc2c1,-8%
CCOc1cc(C(=O)N2CCOCC2)ccc1OCc1ccccc1,-5%
CC(=C/C=C/C(C)=C/C=C/C=C(C)/C=C/C=C(C)/C=C/C(=O)O)/C=C/C(=O)O,-4%
COc1ccc(-c2cnnc(N/N=C/c3ccc(O)c(O)c3)n2)cc1,-19%
COc1ccc(C(=O)NCC(=O)N/N=C/C(C)=C/c2ccco2)cc1OC,-10%
O=C(OCc1ccccc1)c1cccc(-c2nnn(Cc3ccccc3)n2)c1,-12%

# Part of the list above, with tabs:
Compound	HPGD block
CC(=C/C=C/C(C)=C/C=C/C=C(C)/C=C/C=C(C)/C=C/C(=O)O)/C=C/C(=O)O	-4%
COc1ccc(-c2cnnc(N/N=C/c3ccc(O)c(O)c3)n2)cc1	-19%

# (more compounds)
SMILES,HPGD block
O=C(c1cc2ccccn2n1)N1CCN(c2ccccn2)CC1,-10%
Cc1ccc(-c2nc(N)sc2CC(=O)OCC(=O)NCCC(C)C)cc1,-22%
Cn1c(SCc2ccc(Br)cc2)nnc1-c1ccncc1,-5%
CCCc1nnc2c(N(C)S(=O)(=O)c3ccc(C)cc3)nc3ccccc3n12,-5%
NS(=O)(=O)c1cc([C@@]2(O)NC(=O)c3ccccc32)ccc1Cl,-9%
O=[N+]([O-])c1ccc2nccn2c1,-5%
O=C(c1csnn1)N1CCC[C@@]2(CCN(Cc3nccs3)C2)C1,-4%
CCOC(=O)c1nn(-c2ccc(F)cc2)c2nc(-c3ccccc3)c(C#N)c(=O)n12,?
O=C(Nc1cc(C(F)(F)F)ccc1N1CCCC1)c1ccc2c(c1)OCO2,1%
CCOC(=O)/C(C(N)=NCC(C)C)=C(/O)c1ccccc1,-18%
COC(=O)c1ccccc1NC(=O)c1cccc(NC(=O)CSCc2ccccc2)c1C,-2%
CCCCOC(=O)c1cc(=O)[nH]c2ccccc12,-18%

# Single values from the list:
# Under HPGD block, `O=C(c1cc2ccccn2n1)N1CCN(c2ccccn2)CC1` shows -10%
# Under HPGD block, `CCCc1nnc2c(N(C)S(=O)(=O)c3ccc(C)cc3)nc3ccccc3n12` shows -5%
# Under HPGD block, `Cc1ccc(-c2nc(N)sc2CC(=O)OCC(=O)NCCC(C)C)cc1` shows -22%
# Under HPGD block, `O=[N+]([O-])c1ccc2nccn2c1` shows -5%
# Under HPGD block, `COC(=O)c1ccccc1NC(=O)c1cccc(NC(=O)CSCc2ccccc2)c1C` shows -2%
# Under HPGD block, `O=C(Nc1cc(C(F)(F)F)ccc1N1CCCC1)c1ccc2c(c1)OCO2` shows 1%

# Following part.
SMILES,HPGD block
Cc1nc(NC(=O)/C=C/c2ccc(F)cc2)sc1C(=O)N(C)C,-18%
FC(F)(F)c1cccc(-c2nnc3ccc(C(F)(F)F)cn23)c1,-5%
CCNC(=O)OCC(CC)NC(=O)OCC(C)C (configuration not stated),-8%
O=C(CCN1CCN(c2ccc(F)cc2)CC1)Nc1ccc(F)cc1,-5%
COCCN1C(=O)c2ccc(C(=O)O)cc2C1=O,-20%
Cc1cc(N2C(=O)C=CC2=O)c([N+](=O)[O-])cc1C,2.8µM*
COc1cc(C(=O)NCCOc2cc(C)cc(C)c2)c(Br)c(OC)c1OC,-7%
CCCCC(=O)Nc1sc2c(c1-c1nc3ccccc3s1)CCN(C(C)=O)C2,-20%
O=c1[nH]n(-c2ccc(Cl)cc2)c2ncccc12,11µM*
COc1ccccc1C(=O)Nc1nc(N)n(-c2ccccc2)n1,-11%
COc1ccc(/C=N/NC(=O)CCc2n[nH]c(=O)[nH]c2=O)cc1O,-12%
NC(=O)SCC(=O)Nc1cccc(Cl)c1,-22%
O=C(Oc1ccccc1C(=O)O)c1ccccc1O,?
N#Cc1nc(-c2ccco2)oc1N1CCN(C(c2ccccc2)c2ccccc2)CC1,?
COc1cccc(NC=C2C(=O)OC3(CCCCC3)OC2=O)c1,-24%
Nc1cccc(C(=O)Nc2ccc3nc(-c4cccnc4)[nH]c3c2)c1,-20%
CCCc1nnc(NC(=O)NCCN2C(=O)C3C4C=CC(C4)C3C2=O)s1 (configuration not stated),-4%
C=CCO[C@@H](Cn1ccnc1)c1ccc(Cl)cc1Cl,-7%
Cc1c(C(=O)NCc2ccc3c(c2)OCO3)oc2ccc(Br)cc12,-11%
O=[N+]([O-])c1cc(C=Nc2ccc3ccccc3c2)ccc1Br,?
O=C(NCc1ccccc1)c1ccc(Cc2nc3ccccc3[nH]2)cc1,-4%
Brc1ccc(-c2nnc3ccc(Nc4ccccc4)nn23)cc1,-17%
CC1CCN(C(=O)CCCOc2cc(=O)n(C)c3ccccc23)CC1,7.9µM*
O=[N+]([O-])c1ccc2c(c1)C(N1CCOCC1)/C(=C/COc1ccc3ccccc3c1Br)O2 (configuration not stated),-8%
CCN(CC)C(=O)Oc1ccc2cc(Br)ccc2c1,0%
O=C(O)C(Cc1ccccc1)N1C(=O)/C(=C/c2cccc3ccccc23)SC1=S (configuration not stated),14µM*
CCc1nc(NCc2ccco2)c2oc3ccccc3c2n1,-16%
Cc1ccc(NC(=O)c2ccc(OC(=O)COc3cccc(Cl)c3)cc2)cc1,-8%
Cc1cccc(N/C(=N\S(=O)(=O)c2ccccc2)C(F)(F)F)c1,-9%
O=C(Cc1cccs1)N/N=C/C=C/c1ccco1,?
COc1ccc(C(=O)Nc2nc3c(s2)CCCC3)cc1S(=O)(=O)N1CCCc2ccccc21,?
CCN1/C(=C2\C(=O)N(C)C(=S)N2C)C=Cc2cc(OC)ccc21,-17%
CCOc1ccc(S(=O)(=O)NCC(=O)N(C)Cc2cccnc2)cc1,?
CCOc1ccc(CSC2=NCCN2)cc1Cl,-8%
CN(CC(=O)N1CCCCCC1)S(=O)(=O)c1cccc2cccnc12,-15%
O=C(NNC(=O)c1cccnc1SCc1cccc([N+](=O)[O-])c1)c1ccccn1,-8%
COc1ccc(NC(=O)c2ccc(-c3ccc(-c4noc(C)n4)cc3C)cc2)cc1OCCN(C)C,?
CNc1cc(NS(=O)(=O)c2ccc(N)cc2)nc(NC)n1,-18%
O=C(CSCc1cccc(Br)c1)N1CCOCC1,-9%
CCCc1nc2ccccc2n1CCc1ccccc1,-11%
Nc1c(S(=O)(=O)c2cccs2)c2nc3ccccc3nc2n1CC1CCCO1 (configuration not stated),?
Cc1ccc(OCc2nnc(NC(=O)c3ccco3)s2)cc1,-9%
COc1ccc2c(c1)C(=O)c1ccccc1CO2,35µM*
CCOc1cc(C(=O)N2CCN(c3ccccc3)CC2)cc(OCC)c1OCC,-15%
CCOc1ccc(-c2nc(CSc3nnc(C)s3)cs2)cc1OC,-23%
COc1ccc(OCCn2c(C)c(/C=N/n3cnnc3)c3ccccc32)cc1,-14%
CCOc1ncccc1C(=O)OCC(=O)Nc1c(C)cc(C)cc1C,2%
CC1CCCC(NC(=O)CN(C)S(=O)(=O)c2cccc3cccnc23)C1C (configuration not stated),-2%
COC(=O)c1c(NC(=O)C2COc3ccccc3O2)sc2c1CCN(C(C)=O)C2 (configuration not stated),?
Cc1ccc(/C=N/n2c(C3CCCCC3)n[nH]c2=S)s1,11µM*
Cc1noc(C)c1C(=O)N1CCC2(CCCN(c3ccncc3)C2)CC1,-9%
O=C1CCc2cc(S(=O)(=O)N3CCC(C(=O)Nc4nccs4)CC3)ccc2N1,4%
COc1ccccc1C(=O)NCCN1CCN(C(=O)c2ccccc2OC)CC1,11%
Cc1ccccc1-c1noc(-c2ccc(O)cc2)n1,-22%
CC(C)/C=N/NC(=O)c1cc(Br)ccc1O,?
CCOC(=O)c1ccccc1NC(=O)Cc1ccccc1OC,-5%
CC(=O)c1cccc(NC(=O)Nc2cccnc2)c1,-5%
Cc1ccc(CCNC(=O)C2CCCN(S(=O)(=O)c3cccc4nsnc34)C2)cc1 (configuration not stated),-18%
O=[N+]([O-])c1ccc(Cl)c(/C=N/n2c(-c3cccnc3)n[nH]c2=S)c1,8.9µM*
O=C1c2ccccc2C(=O)N1CCCn1nnc(-c2ccc(N3CCOCC3)cc2)n1,-22%
# The results go on:
SMILES,HPGD block
C=CCN(C(=O)c1ccccc1)c1ccc(OC)cc1,-27%
O=C(c1ccc(F)cc1)c1c[nH]c(C(=O)NCc2ccco2)c1,-7%
O=S(=O)(c1ccc(-c2cn3ccccc3n2)cc1)N1CCOCC1,?
Cc1ccsc1/C=c1\sc2ncnn2c1=O,-16%
COC(=O)CNC(=O)CSc1nc(N)cc(=O)[nH]1,-10%
NC1=NC(=O)C(Cc2cc(Cl)ccc2Cl)S1 (configuration not stated),-13%
COC(=O)c1nnc(C(=O)N(C)Cc2ccccc2)c2[nH]c3ccccc3c12,-6%
CCOC(=O)c1c(NC(C)=O)no[n+]1[O-],-6%
CCC(=O)N1CCN(c2nc(C)nc3sc(C)c(C)c23)CC1,?
C=CCSc1nccc(-c2nn(-c3ccc(C)cc3)ccc2=O)n1,-28%
CCOC(=O)CCCNC(=O)COC(=O)c1cc(C)cc(C)c1,5%
CCCCNC1=C(Br)C(=O)CC(C)(C)C1,-7%
CC(C)(C)n1nnnc1C(c1ccncc1)N(Cc1ccccc1)Cc1ccco1 (configuration not stated),-17%
CCCC(=O)NCCc1nc2cc([N+](=O)[O-])ccc2n1C,-11%
Cc1ccc(S(=O)(=O)N2CCN(c3ccc(S(=O)(=O)N4CCOCC4)cn3)CC2)cc1,-12%
Cn1c(=O)c2c(nc(OCc3ccc4c(c3)OCO4)n2Cc2ccccc2Cl)n(C)c1=O,-9%
Cc1ccc(N2CC(C(=O)NCc3cccs3)CC2=O)cc1 (configuration not stated),-2%
OCC(CO)(CO)N=Cc1cc(Br)ccc1O,-6%

# 2 records picked at random from those above:
SMILES,HPGD block
CCCC(=O)NCCc1nc2cc([N+](=O)[O-])ccc2n1C,-11%
Cc1ccc(C(C)C)c(OCC(=O)Nc2ccc(Cl)cn2)c1,-7%

# These rows are one share of the data. The share of hits here may be higher or lower than overall.
